StopGo RLuc – Primary qHTS Assay for Foot and Mouth Disease Virus Antivirals against NCGC Sytravon and CBC Compound Libraries: Renilla Luciferase Signal. HEK cells with a luciferase reporter of 2A StopGo recoding. AID 1745857, 2022. Potency, µM (series often up to 57.5 µM), without a hit: at the highest dose signal change, negative = less light. 120,000 tested, 0.32% active; active means well fitted falling curve with a large enough effect; inconclusive means small, poorly fitted or top-dose-only effect; inactive means no such curve, though single readings can be large or run the other way; further: nearly all actives have a fitted effect of over 55% in size; overnight with compound
StopGo FLuc – Primary qHTS Assay for Foot and Mouth Disease Virus Antivirals against NCGC Sytravon and CBC Compound Libraries: Firefly Luciferase Signal; 120,000 tested, 0.23% active; HEK cells with a luciferase reporter of 2A StopGo recoding; Potency, µM (titrated, usually from 57.5 µM), inactives show at the highest dose signal change, negative = less light; active = well fitted falling curve with a large enough effect; inconclusive = small, poorly fitted or top-dose-only effect; inactive = no such curve, though single readings can be large or run the other way; further: nearly all actives have a fitted effect of over 60% in size; overnight with compound
Active calls of the source: *; ? = inconclusive; [ ] = dose if it differs, or a comment. On the % scale 0 is the no-effect control and ±100 the full control effect; potency means the concentration at half of the fitted maximal effect. The list is partial; the hit share may differ from the screen's.

SMILES	StopGo RLuc	StopGo FLuc
CCOC(=O)C1CCN(C(=O)CCC(=O)N2CCN(c3cccc(Cl)c3)CC2)CC1	?	?
Cc1cccc(S(=O)(=O)c2cn(Cc3ccc(F)cc3)c3cc(N4CCCCC4)c(F)cc3c2=O)c1	3%	-6%
COc1cc2c(cc1OC)C(c1ccccc1)N(CC(O)CO)CC2 (stereo not given)	3%	8%
O=C(CC1SCCNC1=O)Nc1ccccc1Cl (stereo not given)	-4%	49%[activator]
CCc1ccc(C(=O)N(Cc2ccco2)C2CC2)s1	5%	16%
CCOc1ccc(NC(=O)C2CCCN(c3nnc(-n4c(C)ccc4C)s3)C2)cc1 (stereo not given)	11%	43%[activator]
CC(C)(C)c1ccc(CNCCCC(=O)O)cc1	2%	-2%
COc1ccccc1Cc1nc2ccccc2nc1SCC(=O)Nc1ccccc1OC	-4%	-13%
CC1CCN(c2nc3nonc3nc2Nc2cccc(Cl)c2)CC1	?	?
COc1ccccc1OCC(=O)NCC1(N2CCOCC2)CCCCC1	-3%	-19%
CCOc1cccc(CC(=O)N2CCc3c([nH]c4ccccc34)C2c2ccc(C)cc2)c1OCC (stereo not given)	-24%	?
NS(=O)(=O)CC(=O)O	11%	8%
S=C(NCCc1ccccc1)Nc1ccc(Sc2ccc(Br)cc2)cc1	-14%[1.06 µM]	-4%
COC(=O)c1ccc(C)c(S(=O)(=O)Oc2ccc3ccc(=O)oc3c2)c1	29%	30%
COC(=O)CSc1nc(N)c2c3c(sc2n1)CCCCC3	-10%	14%
CC(NC(=O)CSc1nc(-c2cccc(Cl)c2)nc2cc(=O)[nH]n12)c1nc2ccccc2n1C (stereo not given)	-10%	-9%
CC(=O)N1CCCc2cc(S(=O)(=O)N3CCC(C(=O)NCCC(C)C)CC3)ccc21	9%	-1%
CCC(=O)N1c2ccccc2CC1C(=O)NCCCN1CCN(c2ccccc2)CC1 (stereo not given)	-12%	-18%
Cc1ccc2c(ccc3ccccc32)n1	5%	133%[activator]
COc1ccc(S(=O)(=O)N2CCN(c3ccccc3)CC2)cc1-c1noc(C)n1	8%	-3%
O=C(CSc1nc(-c2cccs2)nc2ccccc12)N1CCC1	54%[activator]	60%[activator]
O=C(Cn1ncc2c3ccccc3n(Cc3ccccc3F)c2c1=O)NC1CCCCCC1	-5%	6%
CCc1ccccc1NC(=O)CNC(=O)Cn1c(=O)n(CC)c2ccccc21	20%	6%
COc1ccc(N2C(=O)CC(Sc3nc(C)c4cc(OC)ccc4n3)C2=O)cc1 (stereo not given)	33%	59%[activator]
Oc1ccc(Cl)cc1C=Nc1cc(C(F)(F)F)ccc1Oc1ccc(Cl)cc1	-10%	33%[activator]
O=C(CCS(=O)(=O)c1ccc(Cl)cc1)N1CCN(c2nc3ccc(Cl)cc3s2)CC1	11%	0%
COC(=O)c1cc2oc(C)cc2n1Cc1ccc(C)cc1	-3%	0%
CC(C)Oc1ccc(CNC(=O)c2ccc3nc(Cc4ccccc4)oc3c2)cc1	-13%	-5%
COc1ccc(CN2COc3ccc4c(-c5ccccc5)cc(=O)oc4c3C2)cc1OC	-3%	0%
COc1cccc(C(=O)Nc2cnc3ccccc3c2)c1	0%	-75%
O=C(Nc1cccc(Br)c1)C1CCCCC1	9%	47%[activator]
Cc1ccc(C2=Nc3ccccc3NC(c3ccncc3)=N2)cc1	20%	0%
COc1cc(CN(CC(=O)NC(=O)NC(C)(C)C)C2CC2)ccc1OC(F)F	2%	1%
CC(CC(=O)Nc1ccc(F)cc1)S(=O)(=O)c1ccc2c(c1)CCN2C(=O)C1CC1 (stereo not given)	-18%	-29%
Cc1ccccc1CSc1nc2nccnc2c(=O)n1Cc1ccc2c(c1)OCO2	12%	3%
O=C(OCc1nc2ccccc2o1)c1cccc(S(=O)(=O)NC2CC2)c1	3%	-3%
CCCNC(=O)c1nc[nH]c1C(=O)NCC1CCCCC1	19%	13%
Cc1cc(C(=O)NCc2cccnc2)sc1C	-1%	8%
CCCC(=O)Nc1c(-c2cccc3ccccc23)c(=O)c2ccccc2n1C	-16%	-9%
O=C(CSc1nc(=O)n(Cc2ccncc2)c2c1CCC2)Nc1ccccc1	-7%	-4%
CCOc1ccc(Nc2nc3ccccc3c3nnc(CC)n23)cc1	-1%	-10%
COC(=O)c1cc(Cl)ccc1NC(=O)Cn1c(C)cc(C)c(C#N)c1=O	-7%	-17%
O=C1c2[nH]nc(-c3ccccc3O)c2C(c2ccc(Cl)cc2)N1Cc1ccco1 (stereo not given)	11%	-10%
CCNC(=O)NC(=O)C(C)Sc1cccc2cccnc12 (stereo not given)	9%	15%
Cc1[nH]c2ccccc2c1SCCNC(=O)c1ccccc1F	31%[activator]	3%
O=C(c1ccc(Cl)cc1)n1nc(-c2cccnc2)nc1NCc1ccc(F)cc1	-7%	-2%
CCS(=O)(=O)c1ncc(N(Cc2ccccc2)Cc2ccco2)c(C(=O)Nc2cccc(Cl)c2C)n1	18%	-6%
COc1ccc(-c2cn3nc(N4CCCC(C(=O)Nc5ccccc5OC)C4)sc3n2)cc1 (stereo not given)	-9%	24%

Part of the list above in order of heavy-atom count, smallest number first:
SMILES	StopGo RLuc	StopGo FLuc
Cc1cc(C(=O)NCc2cccnc2)sc1C	-1%	8%
CCOc1ccc(Nc2nc3ccccc3c3nnc(CC)n23)cc1	-1%	-10%
CCCC(=O)Nc1c(-c2cccc3ccccc23)c(=O)c2ccccc2n1C	-16%	-9%
O=C(c1ccc(Cl)cc1)n1nc(-c2cccnc2)nc1NCc1ccc(F)cc1	-7%	-2%
CCS(=O)(=O)c1ncc(N(Cc2ccccc2)Cc2ccco2)c(C(=O)Nc2cccc(Cl)c2C)n1	18%	-6%

Back to the main list; the five compounds before the break are reprinted first.
SMILES	StopGo RLuc	StopGo FLuc
CCNC(=O)NC(=O)C(C)Sc1cccc2cccnc12 (stereo not given)	9%	15%
Cc1[nH]c2ccccc2c1SCCNC(=O)c1ccccc1F	31%[activator]	3%
O=C(c1ccc(Cl)cc1)n1nc(-c2cccnc2)nc1NCc1ccc(F)cc1	-7%	-2%
CCS(=O)(=O)c1ncc(N(Cc2ccccc2)Cc2ccco2)c(C(=O)Nc2cccc(Cl)c2C)n1	18%	-6%
COc1ccc(-c2cn3nc(N4CCCC(C(=O)Nc5ccccc5OC)C4)sc3n2)cc1 (stereo not given)	-9%	24%
O=C(CCC(=O)c1cccs1)Nc1cccc(N2CCCC2=O)c1	0%	25%
CCOc1ccc(N(C(=O)c2ccc(OC)cc2)S(=O)(=O)c2ccc3c(c2)n(C)c(=O)n3C)cc1	147%[activator]	8%
COc1ccc(C2c3[nH]c4ccccc4c3CCN2C(=O)CCC2CCCC2)cc1 (stereo not given)	?	?
O=C(CCSCc1ccccc1Cl)N1CCN(c2ccc(F)cc2)CC1	2%	-7%
CCN(C(=O)Cn1nc(Cc2cccnc2)c2ccccc2c1=O)c1cccc(Cl)c1	-13%	-13%
COC(=O)c1ccccc1NC(=O)C1CCCN(c2nnc(C)c3c(C)n(-c4ccccc4)nc23)C1 (stereo not given)	-14%	-17%
CC(C)Oc1ccc(CNC(=O)Cn2ncn3nc(-c4cccs4)cc3c2=O)cc1	-10%	-1%
Cc1ccc(-c2nn(CC(=O)N3CCCCC3)c(=O)c3ccccc23)cc1S(=O)(=O)N(C)C	29%	7%
COc1cc(C2C(=O)N(C3CCCCCC3)CC(=O)N2CCC2=CCCCC2)ccc1OC(C)C (stereo not given)	7%	-16%
Cc1oc2cc(OCCN3CCN(CCO)CC3)ccc2c(=O)c1-c1ccccc1	-7%	0%
CCOC(=O)c1nc(Nc2ccc(Cl)cc2)c2c(C)noc2n1	-13%	-19%
COc1ccccc1NC(=O)Nc1nnc(N(C)C2CCCCC2)s1	-10%	127%[activator]

In the list so far, two have bromine.
SMILES	StopGo RLuc	StopGo FLuc
S=C(NCCc1ccccc1)Nc1ccc(Sc2ccc(Br)cc2)cc1	-14%[1.06 µM]	-4%
O=C(Nc1cccc(Br)c1)C1CCCCC1	9%	47%[activator]

More compounds
SMILES	StopGo RLuc	StopGo FLuc
Cc1cccc(-c2nc(CSCC(=O)NCc3cccs3)c(C)o2)c1	1%	13%
O=C(C1CCCC1)N1CCN(c2nc3ccccc3o2)CC1	-22%	23%
COc1ccc(CCNC(=O)Cc2c(C)c3c(cc(C)c4c(C)coc43)oc2=O)cc1OC	142%[activator]	0%
CCCOc1ccc(C(=O)Nc2ccc(-c3nc4ccccc4o3)cc2)cc1	-5%	-1%
Cc1cccc(Cn2c(C)c(C)c3cc(C(=O)NCc4ccc(C)o4)ccc32)c1	36%[activator]	24%
CCCNc1c(NC(C)=O)c(=O)oc2ccccc12	19%	30%[activator]
Cc1onc(-c2ccccc2Cl)c1C(=O)Nc1ccccc1NC(=O)c1ccccc1	50%[activator]	0%
CCOc1ccccc1C(=O)NCC(c1ccc(N(C)C)cc1)N1CCCC1 (stereo not given)	-14%	-20%
COc1ccc(CCNc2nc(-c3ccc(Cl)cc3)cc(C(F)(F)F)n2)cc1OC	-12%	-11%
COC(CNC(=O)CC(C)C)c1ccccc1 (stereo not given)	-1%	89%[activator]
CC(C)Cn1nc(C(=O)Nc2ccc(S(=O)(=O)N(C)C)cc2)c2ccccc2c1=O	1%	4%
CCCCCC(C)NC(=O)C1CC2CCC1C2 (stereo not given)	12%	39%[activator]
CCOc1ccc(CN(C)CC(=O)Nc2ccc(F)c(Cl)c2)cc1	?	?
Cc1nn(C)cc1-c1cc(C(=O)O)c2ccccc2n1	-2%	4%
Cn1nnnc1-c1cccc(NS(=O)(=O)c2cc(C(F)(F)F)ccc2Cl)c1	88%[activator]	6%
CCOC(=O)c1[nH]c(C)c(CCC(=O)NCc2cccc(Cl)c2)c1C	11%	10%
Cc1cc(-c2ccccc2)n2nc(-c3ccc(Cl)cc3)cc2n1	-5%	-5%
O=C(CN1C(=O)CCc2cc(Br)ccc21)Nc1ccc(OC(F)(F)F)cc1	-12%	-4%
N#Cc1nc(-c2ccc(OCc3ccccc3)cc2)oc1NCc1ccco1	0%	0%
Cc1ccc(CNC(=S)Nc2ccccc2Cl)cc1	187%[activator]	0%
Cc1cc(C2CCCN2S(=O)(=O)c2cc(C)c(C)cc2C)on1 (stereo not given)	38%[activator]	-4%
CC(C)C(NCc1ccccc1)C(=O)O (stereo not given)	1%	-6%
COc1ccc(C2C(=O)N(C3CCCCC3)CC(=O)N2CCC2=CCCCC2)cc1 (stereo not given)	-2%	-15%
O=c1cccc(-c2cccc3ccccc23)o1	25%	72%[activator]
Cc1nc(SCc2cc(=O)c3cccc(F)c3[nH]2)n[nH]1	-3%	-10%
Cc1ccc(CCNC(=O)C2CC2)o1	-12%	5%
CCCCN(C)CCCNC(=O)c1cn(CC)c2ccc(S(=O)(=O)N3CCc4ccccc4C3)cc2c1=O	-15%	-2%
COc1cccc(NC(=O)Nc2ccc3nc(N4CCN(C)CC4)cc(C)c3c2)c1	44%[activator]	33%[activator]
NC(=O)c1ccsc1NC(=O)COC(=O)c1ccc(Br)cc1	-12%	10%
COc1ccc(CCNC(=O)c2ccc3c(c2)CCN3S(C)(=O)=O)cc1	-6%	-7%
CCOc1ccc(CNC2CC2)cc1	-1%	2%
Cn1c(=O)[nH]c(=O)c2c1nc(SCC(=O)O)n2Cc1ccc(Cl)cc1	-13%	-12%
COc1cc2c(=O)n(Cc3ccco3)c(=O)n(CC(=O)Nc3ccc(F)cc3)c2cc1OC	4%	5%
CCc1ccccc1NC(=O)Cn1nc(C(F)(F)F)c2c1CCCC2	0%	-9%
Cc1ccc(NC(=O)C2CC3CCC2C3)c(Cl)c1 (stereo not given)	5%	137%[activator]
Cc1cc(C)n(-c2nc3cc(Cl)ccc3nc2NCc2cccnc2)n1	-4%	1%
COc1ccc(CN2CCCC2c2cccc(C)c2)cc1O (stereo not given)	4%	3%
CCCCN(C)CCCNC(=O)c1cc(-c2ccc(Br)s2)nc2ccccc12	-5%	-21%
CCC(=O)Nc1cc2nn(-c3ccc(C)cc3)nc2cc1C	3%	25%
COc1cc(OC)c(NC(=O)c2ccc3c(Cl)c4c(nc3c2)CCCC4)cc1Cl	6%	-1%
C[N+](C)(N)Cc1ccccc1	3%	20%
Cc1ccc(C)c(OC(=O)c2ccc(CSc3ccc(Cl)cc3)cc2)c1	12%	58%[activator]
CCCCCCCCN1C(=O)[C@@H](CC(=O)N2CCCC2)C[C@@]2(C(=O)OC)C1=C[C@H](COCc1ccccc1)O[C@@H]2C	0%	-11%
COc1ccccc1C(=O)N/C(=C\c1cn(S(=O)(=O)N(C)C)c2ccccc12)C(=O)NCCO	118%[activator]	12%
Cn1c(=O)c2[nH]c(CN3CCN(c4ccc(F)cc4)CC3)nc2n(C)c1=O	-13%	-3%
N#Cc1c(SCC(=O)O)nc2c(c1-c1cccs1)CCCC2	-6%	-8%
c1ccc(CSc2ncn(-c3nc(N4CCCCC4)nc(N4CCCCC4)n3)n2)cc1	-3%	3%
COCC(=O)N1CCN(Cc2noc(C(C)(C)C)n2)CC1	-7%	1%
Cc1ccc(-c2nc(Cn3nnc(-c4cccc(F)c4)n3)cs2)cc1	21%	34%[activator]
O=C(Nc1ccc(F)cc1)[C@H](CSCc1ccccc1)N1Cc2ccccc2C1=O	162%[activator]	-4%
CCCNC(=O)C(C)NC(=O)c1cc(C2CC2)nc2c1cnn2C(C)C (stereo not given)	5%	9%
Cc1ccc(Nc2ccc3cc(S(=O)(=O)N4CCCCC4)ccc3n2)cc1F	184%[activator]	0%
Cc1nc2nc(SCC(=O)N(C)Cc3ccccc3)nn2c(C)c1Cc1ccccc1Cl	-6%	-14%
CC1=C(C(=O)OCC2CCCCC2)C(c2ccc(Cl)cc2)CC(=O)N1 (stereo not given)	10%	2%

Screening data from PubChem.
